# GIV-Gai inh – inhibitors of GIV GBA-motif binding to rat Galpha-i3; P08753; Galpha-i3/FITC-GIV peptide fluorescence polarization, 90 min; active compounds read low; scaled: aluminum fluoride 0%, vehicle 100%; percent of control (FP), % (no concentration beside the values); 210,000 compounds, 0.42% hits; AID 1224905;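 active = replicate mean at 85% of control or lower, very high polarization wells dropped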;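 note: wells of about 15 µL received 100 nL stock; the first replicate is given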
# Target sequence (P08753 whole entry, looked up): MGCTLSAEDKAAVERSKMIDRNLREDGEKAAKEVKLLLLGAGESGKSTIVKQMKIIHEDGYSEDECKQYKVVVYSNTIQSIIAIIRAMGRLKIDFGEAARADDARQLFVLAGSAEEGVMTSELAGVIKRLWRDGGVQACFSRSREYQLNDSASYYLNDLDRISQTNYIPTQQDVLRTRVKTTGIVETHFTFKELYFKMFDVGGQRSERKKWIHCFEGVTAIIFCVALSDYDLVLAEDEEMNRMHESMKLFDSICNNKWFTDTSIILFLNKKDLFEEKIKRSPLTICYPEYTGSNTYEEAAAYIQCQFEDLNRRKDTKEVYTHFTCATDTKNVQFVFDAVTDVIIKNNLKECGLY
# * hit, by the source's call.
no.	compound	GIV-Gai inh
1	Cc1cc(NC(=O)COc2cccc3c(=O)n(C)ccc23)no1	96
2	COc1cc(OC)cc(-c2nc(-c3ccccc3)c(-c3ccc(Cl)cc3)[nH]2)c1	108
3	Cc1ccc(Cl)cc1N1C(=O)C2C3c4ccccc4C(c4ccccc43)C2C1=O (centres undefined)	102
4	O=C(Nc1ccccc1F)c1ccc(N2CC3CC(C2)c2cccc(=O)n2C3)c(NC(=O)c2cc3ccccc3oc2=O)c1 (centres undefined)	102
5	COc1ccc(N2C(=O)C(N3C(=O)c4ccccc4C3=O)C2c2cccc(OC)c2)cc1 (centres undefined)	113
6	O=C(CSc1nc2c(sc(=S)n2Cc2ccco2)c(=O)n1-c1ccc(F)cc1)NCC1CCCO1 (centres undefined)	107
7	Cc1nn(-c2nc3ccccc3s2)c2c1C(c1ccc(F)c(F)c1)CC(=O)N2 (centres undefined)	104
8	Cc1ccc(N=c2oc3ccc4ccccc4c3cc2-c2nc3ccccc3s2)cc1C	108
9	CCCCn1c(SCc2nc(-c3cc(OC)cc(OC)c3)no2)nc2cc3c(cc2c1=O)OCO3	105
10	CCOc1ccc(NS(=O)(=O)c2c(C)sc(C)c2-c2n[nH]c(C)c2C)cc1	108
11	Oc1ccc(-c2nc(-c3ccccc3)c(-c3ccc(Oc4ccccc4)cc3)[nH]2)cc1O	111
12	CCCC(=O)N(c1ccc2oc(C)c(C(C)=O)c2c1)S(=O)(=O)c1ccc2ccccc2c1	110
13	C=Cc1ccc(Cn2nc3c(S(=O)(=O)N4CCOCC4)cccn3c2=O)cc1	103
14	Cc1ccccc1Cc1c(C)nc2c(C(=O)NCc3ccc4c(c3)OCO4)cnn2c1C	99
15	CCOc1cccc2c1N(C(=O)c1cccc(F)c1)C(C)(C)c1ssc(=S)c1-2	108
16	O=C(NCCc1c[nH]c2ccccc12)c1ccc(CNc2nc(=S)[nH]c3ccccc23)cc1	104
17	Cc1ccc(-n2nc3c(c2NC(=O)c2ccc(S(=O)(=O)N(C)C)cc2)CS(=O)(=O)C3)c(C)c1	107
18	COCCCNC(=O)C1CCCN(c2cc(=O)n(C)c(=O)n2C)C1 (centres undefined)	106
19	CCOC(=O)c1c(NC(=O)CSc2nnc(CNC(=O)c3cccs3)n2CCc2ccccc2)sc2c1CCC2	109
20	COc1ccc(C2=NN(c3nc(C)c(C(C)=O)s3)C(c3ccc(OC)cc3)C2)cc1 (centres undefined)	101
21	C#CCOc1ccc(OC(=O)c2ccc(OCCCCCC)cc2)cc1	106
22	O=C(CSc1nc(-c2ccccc2)cc(-c2ccccc2)n1)NCc1ccco1	110
23	Cc1noc(C)c1C1CCCN1C(=O)c1ccsc1 (centres undefined)	103
24	O=S(=O)(c1ccc(F)cc1F)N1CCn2cccc2C1c1ccccc1F (centres undefined)	105
25	Cc1nnc(-c2coc(S(=O)(=O)N3CCC(C)CC3)c2)o1	101
26	COCc1nnc(-c2cccs2)o1	111
27	CCOc1ccc(N2C(=O)/C(=C\c3ccc(Br)s3)S(=O)(=O)C2c2cccc([N+](=O)[O-])c2)cc1 (centres undefined)	111
28	Cc1cc(C2CCCN2C(=O)c2nn(C)cc2Cl)no1 (centres undefined)	102
29	CCOc1cc(CN2CCCC2c2cc(C)on2)ccc1OC(C)C (centres undefined)	110
30	COc1ccc(C(=O)[C@@H]2[C@H]3C4COC(O4)C(=O)[C@@H]3[C@H]3C=Cc4ccccc4N32)cc1 (some centres undefined)	136

# A different layout for some results above.
entry | GIV-Gai inh | Molecule
13 | 103 | C=Cc1ccc(Cn2nc3c(S(=O)(=O)N4CCOCC4)cccn3c2=O)cc1
14 | 99 | Cc1ccccc1Cc1c(C)nc2c(C(=O)NCc3ccc4c(c3)OCO4)cnn2c1C

# Random excerpt: 3 entries already listed, in no set order.
no.	compound	GIV-Gai inh
15	CCOc1cccc2c1N(C(=O)c1cccc(F)c1)C(C)(C)c1ssc(=S)c1-2	108
13	C=Cc1ccc(Cn2nc3c(S(=O)(=O)N4CCOCC4)cccn3c2=O)cc1	103
14	Cc1ccccc1Cc1c(C)nc2c(C(=O)NCc3ccc4c(c3)OCO4)cnn2c1C	99

# Going on with the list.
no.	compound	GIV-Gai inh
31	CSc1nc(-c2ccccc2)nc2c1C1(CCCCC1)Cc1ccccc1-2	109
32	CCc1nc(-c2csc(S(=O)(=O)N3CCCC(C(=O)N4CCOCC4)C3)c2)no1 (centres undefined)	107
33	CCOC(=O)C1CCCN(Cc2cn3cc(F)ccc3n2)C1 (centres undefined)	97
34	COc1cccc(NC(=O)c2cccn3c(-c4ccc(F)cc4)nnc23)c1	114
35	CCN(Cc1ccccc1)C(=O)c1c[nH]c2ccc(S(=O)(=O)N(C)c3ccc(Cl)cc3)cc2c1=O	108
36	CCN1CCc2c(sc(NC(=O)CCc3ccccc3)c2-c2nc3ccccc3s2)C1	121
37	CCCC1C(c2ccccc2)NC(c2ccccc2)CC1(O)Cc1ccccc1 (centres undefined)	113
38	Cc1ccc(Cl)cc1NC(=O)CCc1nc(-c2ccc(S(=O)(=O)N3CCCC3)cc2)no1	104
39	COC(=O)c1c(C)oc2ccc(N(C(=O)c3ccccc3Cl)S(=O)(=O)c3ccc4ccccc4c3)cc12	105
40	Cc1nc(N2CCCC2)c2c(C)c(C(=O)N3CCCC3)sc2n1	104
41	COc1cc(C(c2c(C)n(C)n(-c3ccccc3)c2=O)c2c(C)n(C)n(-c3ccccc3)c2=O)cc(Br)c1O	103
42	COc1ccc(-n2c(SCC(=O)NCCc3ccc(S(N)(=O)=O)cc3)nc3n[nH]c(C)c3c2=N)cc1	101
43	OC(CN1CCN(C(c2ccccc2)c2ccc(Cl)cc2)CC1)Cn1c2ccccc2c2ccccc21 (centres undefined)	97
44	O=c1c2cc3c(cc2nc(SCc2nc(-c4cccc(F)c4)no2)n1Cc1ccccc1)OCO3	103
45	C=CCN(CC=C)S(=O)(=O)c1ccc(C(=O)Nc2sc3c(c2C(=O)NC)CCC3)cc1	93
46	CCCNC(=O)Cn1c(-n2nc(C)cc2C)nc2c(c1=O)CCCC2	101
47	COc1ccc(NC(=O)c2cccc(-c3nc(-c4ccc(F)cc4)no3)c2)cc1OC	106
48	O=c1/c(=C/c2ccccc2Cl)sc2nnc(-c3ccccc3Cl)n12	107
49	CCOC(=O)c1ccccc1NC(=O)c1sc2ncnc(N3CCC(C)CC3)c2c1C	104
50	Fc1cccc(-c2nc(-c3ccc4sc5ccccc5c4c3)c(-c3ccccc3)[nH]2)c1	117
51	Cc1cccc(C(=O)Nc2c(C)nc3ccccn3c2=O)c1	101
52	Cc1ccccc1C(=O)Nc1ccc(S(=O)(=O)N2CCCCC2c2cccnc2)cc1 (centres undefined)	106
53	O=C(CSc1nc2cc(C(=O)NCC3CCCO3)ccc2c(=O)n1CC1CCCO1)NC1CCCCC1 (centres undefined)	113
54	Cc1noc(C)c1C1CCCN1S(=O)(=O)c1ccc(Cl)s1 (centres undefined)	97
55	CCOc1ccccc1NC(=O)C1CCN(c2ncnc3onc(-c4ccc(F)cc4)c23)CC1	102
56	O=C(c1cccc2c1NC(c1ccc(Cl)cc1Cl)C1CC=CC21)N1CCOCC1 (centres undefined)	107
57	CCOC(=O)C1(C)C=C(Nc2ccc(S(N)(=O)=O)cc2)C(=O)N1c1ccc(S(N)(=O)=O)cc1 (centres undefined)	107
58	Cc1ccc(CNC(=O)c2cccnc2SCC(=O)Nc2ccc(C(C)C)cc2)cc1	105
59	COc1ccc(-c2[nH]nc3c2C(c2cc4c(cc2Br)OCO4)C(C#N)=C(N)O3)cc1 (centres undefined)	106
60	COc1ccc(C(c2c(C)[nH]n(-c3ccccc3)c2=O)c2c(C)[nH]n(-c3ccccc3)c2=O)c(OC)c1	111

# Reformatted: results already given
37: CCCC1C(c2ccccc2)NC(c2ccccc2)CC1(O)Cc1ccccc1 (centres undefined)
  GIV-Gai inh: 113
38: Cc1ccc(Cl)cc1NC(=O)CCc1nc(-c2ccc(S(=O)(=O)N3CCCC3)cc2)no1
  GIV-Gai inh: 104
39: COC(=O)c1c(C)oc2ccc(N(C(=O)c3ccccc3Cl)S(=O)(=O)c3ccc4ccccc4c3)cc12
  GIV-Gai inh: 105
40: Cc1nc(N2CCCC2)c2c(C)c(C(=O)N3CCCC3)sc2n1
  GIV-Gai inh: 104

# Continued.
no.	compound	GIV-Gai inh
61	COCCNC(=O)c1cn2c(n1)COCC2	103
62	CN(C)C(=O)c1csc2nc(-c3ccc(NC(=O)Cc4cccc(F)c4)cc3)cn12	111
63	Cc1nn(CC(=O)N2CCCC2)c(C)c1S(=O)(=O)N1CCCC(C(=O)N2CCOCC2)C1 (centres undefined)	104
64	COCCNc1nc(-c2ccc(C(C)(C)C)cc2)nc2ccccc12	107
65	CCOc1cc(C2C(C#N)=C(N)OC3=C2C(=O)CC(C)(C)C3)cc([N+](=O)[O-])c1O (centres undefined)	105
66	COC(=O)C1=CN(Cc2ccc(OC)c(OC)c2)C=C(C(=O)OC)C1c1ccc(OC)c(OC)c1	98
67	COc1ccc(-c2cc(C(F)(F)F)n3nc(C(=O)NCCc4c[nH]c5ccccc45)cc3n2)cc1	112
68	CCOCCOC(=O)C1=C(C)NC2=C(C(=O)CC(c3cccs3)C2)C1c1cc(OCC)c(O)c([N+](=O)[O-])c1 (centres undefined)	108
69	Cc1nn(-c2ccc3nnc(C)n3n2)c2c1C(c1cccc(OCc3ccc(F)cc3)c1)CC(=O)N2 (centres undefined)	99
70	O=C1CC(c2cccc(C(F)(F)F)c2)c2cc(Br)c3ccccc3c2N1 (centres undefined)	123
71	COC(=O)c1ccc(C2Nc3ccc(Br)cc3[C@H]3OCC[C@@H]23)cc1 (some centres undefined)	102
72	NC(=O)C1(N2CCCCC2)CCN(C(=O)c2ccc3c(=O)n(CCC4=CCCCC4)c(=S)[nH]c3c2)CC1	107
73	CC1CCC(NS(=O)(=O)c2ccc3c(c2)c(=O)n(CC(=O)N2CCCC2)c(=O)n3C)CC1 (centres undefined)	107
74	Cc1ccc(-c2ncc3c(=O)n(CCN(C)C)c(=O)n(C)c3n2)cc1	102
75	CCCN(CCC)C(=O)c1cccc(-c2ccc(S(=O)(=O)N3CCCCC3)cc2)c1	103
76	CNc1ccn(-c2nc(-c3ccccc3)oc2-c2ccccc2)c(=O)n1	109
77	Cc1cc(SCC(=O)N2CCc3ccccc32)n2ncc(-c3ccc(F)cc3)c2n1	96
78	O=C(Nc1ccc(Oc2ccc3ccccc3c2Cl)c(Cl)c1)c1cc(I)cc(I)c1O	103
79	Cc1nn(-c2ccc(F)cc2)c2c1c(=O)c(C(=O)N1CCN(c3ccc(Cl)cc3)CC1)cn2C	104
80	Cc1noc2nc(CCC(=O)NCCCN3CCCC3=O)nc(N3CC(C)CC(C)C3)c12 (centres undefined)	97
81	Cc1cc(N2CCOCC2)n2nc(CN3CCN(C(C)C)CC3)nc2n1	103
82	Cc1nn(-c2ccccc2)c2sc(C(=O)Oc3cccnc3)cc12	108
83	Cc1ccc(C(=O)NCC(=O)N2CCC(NS(=O)(=O)c3ccccc3)CC2)cc1	101
84	Cc1cccc(N2CCN(S(=O)(=O)c3cccc4nsnc34)CC2C)c1 (centres undefined)	110
85	COc1ccccc1NC(=O)c1ccc(=O)n(Cc2ccc(F)cc2)c1	109
86	CCN(CC)C(=O)c1ccc(-c2nc3cc(NS(=O)(=O)c4ccc(C)cc4C)ccc3n2C)cc1	102
87	COc1ccc(COC(=O)C2=C(C)NC(=O)NC2c2ccc(OC)c(OCc3ccccc3)c2)cc1 (centres undefined)	104
88	Cc1nn(-c2nc3ccc(Br)cc3s2)c2c1C(c1cc(Cl)ccc1F)CC(=O)N2 (centres undefined)	103
89	CCn1cc(C)c(C(=O)O)c1CC(=O)N1CCN(c2ccccn2)CC1	105
90	CCCS(=O)(=O)c1c(S(=O)(=O)CCC)c2c(N)cccn2c1C(=O)c1ccccc1	105
91	O=c1ccc(-c2ccc(F)cc2)nn1CCc1nc(-c2ccc(Cl)cc2)no1	102
92	CN1C(=O)c2ccccc2Sc2cc(-c3noc(COc4ccc(F)cc4)n3)ccc21	97
93	COc1cccc(-n2cc(C(=O)Oc3ccc4cnccc4c3)c3ccccc3c2=O)c1	107
94	Cc1cc(C(=O)N2CCCC2c2c(C)noc2C)on1 (centres undefined)	92
95	CSCCC(C(=O)O)N1C(=O)NC2NC(=O)NC21 (centres undefined)	107
96	CCCOC(=O)c1c(NC(=O)c2c(-c3c(Cl)cccc3Cl)noc2C)sc2c1CCC(C)C2 (centres undefined)	109
97	COc1ccc(-c2csc(Cc3nc(Cc4ccc(Cl)cc4)no3)n2)cc1OC	113
98	Cc1ccc2c(c1)N(C(=O)C1CC1)C(C)(C)c1ssc(=S)c1-2	120
99	Cc1ccc(-n2nc(C)c3sc(N4CCCN(C(=O)C(C)(C)C)CC4)nc32)cc1	102
100	COc1ccccc1-n1c(CNC(=O)c2cccs2)nnc1SCC(=O)N1CCc2ccccc21	111
101	CCCOc1ccc(CN2CCCC2c2cc(C)on2)cc1OCC (centres undefined)	109
102	C#CCOc1ccc(C2Nc3ccc(CC)cc3[C@H]3OCCC[C@@H]23)cc1 (some centres undefined)	96
103	CCC1(C)CC(CCNCc2ccc(N(C)C)cc2)(c2ccccc2OC)CCO1 (centres undefined)	111
104	CCNC(=O)/C=C1\NC(C)(C)Cc2c1ccc1ccccc21	107
105	CN(CC1COCCO1)c1ccc(NC(=O)c2ccc(Cl)cc2)cc1C(=O)O (centres undefined)	101
106	O=C(Nc1ccc(F)c(F)c1)c1ccc(N2CC3CC(C2)c2cccc(=O)n2C3)c(NC(=O)c2c(F)cccc2F)c1 (centres undefined)	102
107	CCOC(=O)C1=CN(Cc2ccc(OC)c(OC)c2)C=C(C(=O)OCC)C1c1cc(OCC)c(O)c([N+](=O)[O-])c1	117
108	Cc1nc(CCNC(=O)[C@H]2CSCN2S(=O)(=O)c2ccc3c(c2)CCCC3)cs1	101
109	O=C(c1ccccc1F)N1CCN(Cc2cc(=O)n3nc(-c4ccccc4Cl)sc3n2)CC1	97
110	COC(=O)c1ccc(C(=O)OC)c(NC(=O)c2cc3nc(-c4ccc(OC)cc4)cc(C(F)(F)F)n3n2)c1	120
111	Cc1ccc(-c2nc(CN3CCCC(C(=O)NC4CCCC4)C3)no2)cc1 (centres undefined)	102

# This is a subset (hit frequency here may not be typical).
